High-throughput results from PubChem BioAssay.
GIV Gai3 FP: blocks GIV peptide binding to rat Galpha-i3 | P08753 | Galpha-i3/FITC-GIV peptide fluorescence polarization, 90 min; stronger effect = lower value; scaled: aluminum fluoride 0%, vehicle 100% | percent of control (FP), % (concentration not given with the values) | 210,000 tested, 0.42% active;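 active means replicate mean at 85% of control or lower, very high polarization wells dropped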;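 further: wells of about 15 µL received 100 nL stock; the first replicate is given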
Target sequence (P08753 whole entry, looked up): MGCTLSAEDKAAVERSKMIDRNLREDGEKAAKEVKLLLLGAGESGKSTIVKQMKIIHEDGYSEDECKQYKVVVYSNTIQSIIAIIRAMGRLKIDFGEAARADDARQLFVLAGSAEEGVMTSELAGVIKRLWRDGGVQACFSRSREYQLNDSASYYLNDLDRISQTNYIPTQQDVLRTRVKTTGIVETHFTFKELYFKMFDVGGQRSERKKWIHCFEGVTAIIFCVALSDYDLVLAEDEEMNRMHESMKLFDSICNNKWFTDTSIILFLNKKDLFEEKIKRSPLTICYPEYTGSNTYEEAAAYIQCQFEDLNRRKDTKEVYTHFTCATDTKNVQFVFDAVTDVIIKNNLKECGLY
HCMV UL50-53 inh: inhibitors of HCMV UL50-UL53 nuclear egress complex interaction. inhibition, % (no concentration beside the values). AID 1918969. 190,000 tested, 0.15% active. HTRF UL50-UL53 interaction, normalized percent inhibition;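 active means both replicates at 50% or more, plus weaker picks with an unusually low signal ratio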;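 further: stock transfer was 100 nL into about 20 µL; 0% = negative control wells and 100% = wells with untagged competitor protein; inactives centre near -12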
Sa growth inh: inhibitors of Staphylococcus aureus growth at 42 °C. 170,000 tested, 0.53% active. AID 720641. S. aureus RN4220 growth, OD600, 20 h; stronger effect = lower value. relative growth, % (concentration not given with the values);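 active means growth at 42 °C up to 50% and 20 or more points under that at 30 °C, or under 10% at both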;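 further: 300 nL library stock went into each well; scaled to the means of positive and negative controls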
Sa growth inh second temp: also measured in Sa growth inh; calls as there; relative growth, %; measured here: growth at 30 °C;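 optical density after 20 h as mean of two plates; 100% = untreated growth and lower means inhibition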
The depositor's hits bear a star; . = no result given; & = joins results of further samples.

The line under a structure holds: Sa growth inh	Sa growth inh second temp	GIV Gai3 FP	HCMV UL50-53 inh
CCN(CC)S(=O)(=O)c1ccc2c(c1)N(CC(=O)NC(C)(C)C)C(=O)CCS2
    .	.	101	-3
CCOC(=O)c1ccsc1NC(=O)CN1C(=O)c2ccccc2C1=O
    79	89	110	-18
Cn1c(=O)c(=O)n(C)c2cc(S(=O)(=O)N3CCCC3c3ccccc3Cl)ccc21 (stereo not given)
    .	.	99	-22
CN(C)S(=O)(=O)c1ccc(N=CC2=C(O)CC(C)(C)CC2=O)cc1
    77	83	.	-6
N/C(COc1ccc(-c2csnn2)cc1)=N\O
    100	87	95	-3
CN(C)C(=S)SCC(=O)NC1CCCCCC1
    78	83	.	-26
O=C(Cc1cccs1)NCc1ccc2[nH]c3c(c2c1)CCCC3
    108	94	104	.
O=C(COC(=O)C1CC1)c1ccccc1Br
    109	91	.	-7
C=CCSc1ncc(-c2ccccc2)cn1
    .	.	99	-12
COc1cc(/C=N/n2c(=S)[nH]nc(C)c2=O)cc(OC)c1OC
    94	88	95	-24
COc1ccc(N2Cc3ccc(OC)c(OC)c3C2=O)cc1
    98	96	.	2
O=C1C=CC(=O)N1CCc1ccccc1
    19	27	.	-13
COc1ccc(NC(=O)CCSc2nc3ccccc3s2)cc1
    94	89	98	-2
O=C(N=Nc1c(O)n(CN2CCCC2)c2ccccc12)c1ccccc1
    102	119	108	-50
O=C(NC1CCCC1)C(c1cccs1)N(Cc1ccccc1)C(=O)C(F)(F)F (stereo not given)
    98	88	.	-8
Cn1nnc2c(N3CCCCC3)ncnc21
    115	87	95	.
O=C1CSc2ccc(S(=O)(=O)CCC(=O)N3CCCCCC3)cc2N1
    77	80	100	-24
CCCNC(=O)C1CCC(CNS(=O)(=O)c2ccc3c(c2)CC(C)N3C(C)=O)CC1 (stereo not given)
    105	99	105	.
CC(C)(C)C1CC=C2[C@H](C1)[C@@H](c1ccsc1)C(C#N)=C(N)C2(C#N)C#N (stereo not given in full)
    109	119	.	-3
O=C(NCc1ccc2c(c1)OCO2)c1ccc(Cl)cc1
    81	89	.	-3
Cc1nn(C)c(C)c1CNC(=O)c1cc2nc(-c3ccc4c(c3)OCO4)cc(C(F)(F)F)n2n1
    87	89	99	.
CC(=O)Nc1ccc(C)c(OC(F)F)c1
    92	91	.	8
CCn1cnc(S(=O)(=O)N2CCC(C(=O)NC3CC3)CC2)c1
    .	.	101	-25
CCN(CCCNC(=O)C1CCN(c2nc3cccnc3s2)CC1)Cc1ccccc1
    .	.	108	-15
S=c1sc2ccccc2n1CN1CCN(Cc2ccccc2)CC1
    78	80	100	.
CCCCCNC(=O)C1CCC(Cn2c(=O)c3sccc3n(CC(=O)N3CCCC3)c2=O)CC1 (stereo not given)
    92	94	97&103	-32
CCN(CC)C(=O)c1ccc(COc2ccc(Cl)c(C)c2)o1
    74	55	108	-3
COc1cc(Cl)cc(CC2C(=O)Nc3ccccc32)c1OC (stereo not given)
    .	.	103	12
COC(=O)C1CCN(C(=O)c2ccc(Cl)cc2)CC1
    .	.	106	-10
CCc1cccc(CC)c1NC(=O)COC(=O)c1ccc2ccccc2n1
    111	98	.	-4
Cc1ccc(C(=O)NNc2ncnc3c2cnn3C)cc1
    94	92	100	3
Cc1nc(NCC(=O)O)c2oc3ccccc3c2n1
    93	76	100	-12
Cc1sc2ncc(C(=O)N(C)Cc3ccccc3)c(=O)n2c1C
    .	.	103	-25
CC[C@H](C)[C@H](NC(N)=O)C(=O)Nc1ccccc1
    83	94	.	-13
O=C(NCCCc1nc2ccccc2n1Cc1ccc(Cl)cc1)C1CCCCC1
    109	70	103	-13
CCC1/C(=N\O)CC(c2ccco2)NC1c1ccco1 (stereo not given)
    91	95	103	-25
Cc1ccc(-n2c(SCC(=O)NCC3CCCO3)nc3n[nH]c(C)c3c2=N)cc1Cl (stereo not given)
    102	86	99	.
COc1cccc(CNC(=O)Nc2ccc3nc(N4CCN(C)CC4)cc(C)c3c2)c1
    104	79	108	11
O=C(Nc1ccc(F)cc1)N1CCCC(c2nc3c(nnn3Cc3ccccc3Cl)c(=O)[nH]2)C1 (stereo not given)
    105	77	107	-5
CCCCNC(=O)c1ccc2c(c1)N(CC)C(=O)c1ccccc1S2
    90	99	102	.
O=S(=O)(c1ccc(Cl)s1)N1CCSc2ccccc21
    95	83	.	-25
C(=Nc1cccc2c(N=Cc3ccco3)cccc12)c1ccco1
    90	87	.	-8
CCCN(C(C)=O)c1nc(-c2ccc(C)cc2)cs1
    .	.	103	-31
O=C(Nc1ccc(F)c(F)c1)c1cnn(-c2ccccc2)c1
    .	.	105	6
COc1ccccc1NC(=O)c1oc2ccccc2c1NC(=O)c1cccc(OC)c1OC
    112	82	106	3
C=CCSc1ncccc1C(=O)NCc1ccccc1
    94	87	99	4
COc1ccc(CCNC(=O)C2CCCN(S(=O)(=O)c3ccc4c(c3)oc(=O)n4C)C2)cc1OC (stereo not given)
    103	94	104	-25
Cc1ccc(C(=O)c2sc3nc(C)ccc3c2N)cc1
    104	84	104	-38
Cc1cc(C)cc(OCC(=O)N2CCNC(=O)C2CC(=O)OCc2ccccc2)c1 (stereo not given)
    124	98	100	-1
CC(C)(O)c1cc(=O)sc2nc3ccccc3n12
    109	92	104	-6

Of the compounds above, these contain two or more sulfur atoms.
The line under a structure holds: Sa growth inh	Sa growth inh second temp	GIV Gai3 FP	HCMV UL50-53 inh
CCN(CC)S(=O)(=O)c1ccc2c(c1)N(CC(=O)NC(C)(C)C)C(=O)CCS2
    .	.	101	-3
CN(C)C(=S)SCC(=O)NC1CCCCCC1
    78	83	.	-26
COc1ccc(NC(=O)CCSc2nc3ccccc3s2)cc1
    94	89	98	-2
O=C1CSc2ccc(S(=O)(=O)CCC(=O)N3CCCCCC3)cc2N1
    77	80	100	-24
S=c1sc2ccccc2n1CN1CCN(Cc2ccccc2)CC1
    78	80	100	.
O=S(=O)(c1ccc(Cl)s1)N1CCSc2ccccc21
    95	83	.	-25

Following part
The line under a structure holds: Sa growth inh	Sa growth inh second temp	GIV Gai3 FP	HCMV UL50-53 inh
COc1ccc2nc(-c3ccccc3)nc(N3CCCCC3)c2c1
    79	86	.	4
O=S1(=O)C[C@H](N2CCCCC2)[C@@H](S(=O)(=O)c2ccc(F)cc2)C1
    .	.	101	-8
COc1ccccc1CNC(=O)C(C)N1C(=O)COc2ccc(C)cc21 (stereo not given)
    114	102	111	4
CCN(CC)c1ccc(NC(=O)CCNS(=O)(=O)c2ccc3c(c2)CCC(=O)N3)c(C)c1
    90	89	114	-14
O=C(O)c1ccc(Cn2c(SCc3ccc(F)cc3)nc3ccncc32)cc1
    102	98	95	-9
CCn1c2ccccc2c2cc(C=Nc3ccc(C)cc3O)ccc21
    73	76	.	-11
Cc1cccc(N2CCN(C(=O)c3cnn(-c4ccccc4)c3C3CCN(C(=O)OC(C)(C)C)CC3)CC2)c1C
    89	88	110	.
N=c1scc(-c2ccc(Cl)cc2)n1-c1ccccc1F
    78	81	98	-24
COc1ccc(-c2c(C)c3ccc(O)c(CN4CCOCC4)c3oc2=O)cc1OC
    84	101	107	.
N#Cc1ccc(COC(=O)C2CCN(c3nc4ccccc4o3)CC2)cc1
    93	94	.	-4
CC1CCCC/C1=N\NS(C)(=O)=O (stereo not given)
    93	116	99	-1
Cc1nn(-c2ccccc2)c2sc(C(=O)OCSc3ncccn3)cc12
    76	92	.	-8
COc1cc(C2NC(=O)NC(C)=C2C(=O)OC2CCCCCCC2)cc(Cl)c1O (stereo not given)
    .	.	104	-13
CC1(C)COC(O)(C(F)(F)F)CC1=O (stereo not given)
    85	82	.	-14
CC(=O)N1CCc2cc(Br)cc(S(=O)(=O)N3CCC(C)CC3)c21
    93	107	115	14
CC(C)c1ccccc1OCC(=O)c1ccc(O)cc1O
    114	92	103	5
Cc1cc(=O)oc(C)c1C(=O)NCC1COc2ccccc2O1 (stereo not given)
    116	79	106	.
c1cn(-c2ncnc3sc4c(c23)CCC4)cn1
    76	82	.	-17
CC(=O)Nc1nc2ccc(CC(=O)NCCc3c[nH]c4ccc(Cl)cc34)cc2s1
    .	.	101	-29
O=C1CC(c2c(F)cccc2Cl)c2c(ccc3ccccc23)N1 (stereo not given)
    122	103	107	2
Cc1ccc(S(=O)(=O)Nc2ccc3nc(-c4ccccn4)[nH]c3c2)cc1
    93	91	99	.
O=C(Nc1ccc(F)cc1)Nc1ccc2snnc2c1
    28	23	112	-10
Cc1oc2c(c1C(=O)Nc1cccc(Br)c1)C1=NCCN1C=N2
    71	93	103	.
Cc1ccc(Oc2c(C)nc(C)[nH]c2=O)cc1
    100	97	95	10
COc1ccc(NC(=O)CN(C)S(=O)(=O)c2ccc3[nH]c4c(c3c2)CCCC4)cc1Cl
    99	89	105	.
O=C1CSC(=S)N1CCc1ccccc1
    98	79	104	-7
Cc1ccc(C(=O)N2CCCC2)cc1NC(=O)c1ccco1
    90	99	107	-20
O=C(NCc1ccco1)C1COc2ccccc2O1 (stereo not given)
    .	.	103	-17
CCOC(=O)N1N=C(C)CC1(O)c1cccnc1 (stereo not given)
    112	91	97	.
CC1CCCN(C(=O)COC(=O)/C=C/c2ccc(C(F)(F)F)cc2)C1 (stereo not given)
    104	87	.	-40

Compound profiles (already shown). Order of values: Sa growth inh, Sa growth inh second temp, GIV Gai3 FP, HCMV UL50-53 inh
Entry for Cc1ccc(Oc2c(C)nc(C)[nH]c2=O)cc1 = 100, 97, 95, 10
Entry for Cc1ccc(C(=O)N2CCCC2)cc1NC(=O)c1ccco1 = 90, 99, 107, -20
Entry for CC1CCCN(C(=O)COC(=O)/C=C/c2ccc(C(F)(F)F)cc2)C1 (stereo not given) = 104, 87, ., -40

Next structures follow.
The line under a structure holds: Sa growth inh	Sa growth inh second temp	GIV Gai3 FP	HCMV UL50-53 inh
COC(=O)c1sc(=S)n(-c2cccc(Cl)c2)c1N
    87	85	97	-24
CC(C)N1CC(C(=O)N2CCN(Cc3ccccc3)CC2)CC1=O (stereo not given)
    92	100	109	-8
CCSC(=O)NC12CC3CC(CC(C3)C1)C2
    103	109	111	-1
OC1(C(F)(F)F)CC(C23CC4CC(CC(C4)C2)C3)=NN1 (stereo not given)
    104	86	101	-30
O=C1C2C3C=CC(C3)C2C(=O)N1NC(=O)C12CC3CC(CC(C3)C1)C2 (stereo not given)
    103	103	.	6
CCOC(=O)C1CCCN(c2c(N)n(CC)c(=O)[nH]c2=O)C1 (stereo not given)
    87	99	.	-6
CS(=O)(=O)c1ccc(NC(=O)C2CCCC2)cc1
    101	92	.	-16
O=C(NCCc1csc(-c2ccc(F)cc2)n1)c1ccc(Br)o1
    53	62	105	.
O=c1c(-c2cc(-c3ccccc3)nc3c2COc2ccccc2-3)coc2ccc(Cl)cc12
    93	104	109	11
Cc1c(C(=O)Nc2ccccc2Cl)oc2ccc(S(=O)(=O)N3CCCCCC3)cc12
    91	86	99	.
O=c1c(=O)n(Cc2ccc(Cl)cc2)ccn1Cc1ccccc1
    81	90	100	.
CCOc1ccc(CCNC(=O)c2cccc3c2SCCC3=O)cc1OCC
    85	83	100	.
Cc1cc(C)cc(C(=O)Nc2ccccc2N2CCOCC2)c1
    95	80	102	-13
COc1cc(C(=O)Oc2cccc(Nc3ncnc4ccccc34)c2)cc(OC)c1OC
    107	98	94	-4
Cc1ccccc1NC1c2ccccc2C(=O)N1Cc1ccco1 (stereo not given)
    86	86	104	-23
CCOc1cc(/C=C/c2ccccc2OC)cc(=O)c2c(C)oc(C)c12
    80	89	95	.
O=C(CSCc1nnc(C(=O)Nc2cccc(F)c2)s1)NC1CCN(Cc2ccccc2)CC1
    .	.	112	-12
Cn1c(=Nc2cccc(O)c2)sc2ccccc21
    116	93	99	-60
CN(C)c1oc(-c2ccc(F)cc2)nc1S(=O)(=O)c1ccc(Cl)cc1
    .	.	103	-20
COc1ccc(OC)c(NC(=O)CC(=O)Nc2ccc3nc4n(c(=O)c3c2)CCCCC4)c1
    111	95	106	-16
COc1ccc(OC)c(N(CC(=O)N2CCN(c3ccccc3F)CC2)S(C)(=O)=O)c1
    111	90	104	-22
O=C1CN(C(=O)COc2ccc(Cl)cc2)C(c2ccc(F)cc2)c2cc(Cl)ccc2N1 (stereo not given)
    69	68	106	-26
COCCn1c(SCC(=O)Nc2ccc(Br)cc2)nc2c([nH]c3ccccc32)c1=O
    146	71	104	.
O=c1onc(-c2ccc(Cl)cc2Cl)n1-c1cccnc1
    105	94	101	2
O=C(CCCN1CCNCC1)c1ccc(F)cc1
    120	96	.	-4
CCn1c(=O)c2sccc2n2c(CCC(=O)NC3CCCCC3)nnc12
    .	.	95	-11
Cc1csc(NC(=O)c2sc3nc4c(c(C(F)(F)F)c3c2N)CCC4)n1
    88	89	.	0
C=CCNC(=O)CSc1nnc(Cc2cccc3ccccc23)n1N
    101	89	.	-17
O=C1NCCCC2c3cc(O)ccc3OC12N1CCCCC1 (stereo not given)
    92	79	105	-14
Cc1onc(-c2ccc(Cl)cc2)c1-c1ccnc(SCc2ccccc2)n1
    97	89	108	-14
CC1CS(=O)(=O)N(c2ccc(C(=O)N3CCCC3)cc2)C1=O (stereo not given)
    .	.	102	-1
